PABP polyA inh: PABP poly(A) RNA binding inhibitors, primary screen, biochemical, fluorescence polarization, uHTS; 1% of 290,000 active; Polyadenylate-binding protein 1 (Homo sapiens), P11940; inhibition, % at 35 µM;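 active = 50% or more with normal probe brightness, or confirmed in later tests; inconclusive = above 50% with abnormal brightness, or retests that disagree; inactive = below 50% or failed in later tests; about a fifth of its hits are not listed in these tables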;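 note: calls also rest on retests at 20 µM and on dose response follow-up; controls were probe without protein and protein plus probe with vehicle; some compounds called inactive have numbers as strong as hits; many hits fall short of the cut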
Target sequence (P11940 whole entry, looked up): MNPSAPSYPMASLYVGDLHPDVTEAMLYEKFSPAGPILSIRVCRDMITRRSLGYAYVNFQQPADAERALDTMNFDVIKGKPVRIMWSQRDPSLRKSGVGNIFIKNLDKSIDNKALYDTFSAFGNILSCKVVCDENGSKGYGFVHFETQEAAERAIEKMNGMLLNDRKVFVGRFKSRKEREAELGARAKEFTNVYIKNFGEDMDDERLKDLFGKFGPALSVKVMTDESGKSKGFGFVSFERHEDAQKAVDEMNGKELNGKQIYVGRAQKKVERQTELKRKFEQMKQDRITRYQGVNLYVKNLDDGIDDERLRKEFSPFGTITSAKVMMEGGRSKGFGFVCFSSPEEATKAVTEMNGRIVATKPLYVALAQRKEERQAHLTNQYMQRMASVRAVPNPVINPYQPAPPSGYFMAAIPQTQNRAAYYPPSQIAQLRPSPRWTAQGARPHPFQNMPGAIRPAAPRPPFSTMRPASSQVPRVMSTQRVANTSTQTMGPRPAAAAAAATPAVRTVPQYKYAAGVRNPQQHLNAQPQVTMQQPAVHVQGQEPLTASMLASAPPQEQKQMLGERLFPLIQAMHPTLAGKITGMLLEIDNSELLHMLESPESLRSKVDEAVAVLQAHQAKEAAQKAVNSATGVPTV
Rce1 inh: yeast Rce1p protease inhibitors, primary screen, biochemical, fluorescence, cell-free homogeneous; yeast membranes, quenched prenylated peptide cleavage fluorescence; calls only; 0.27% of 290,000 active; AID 2563, 2010;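 active = fall in fluorescence gain of 50% or more versus controls, with final raw signal at or below 3038400; inconclusive = same 50% fall but final raw signal above 3038400; inactive = fall in fluorescence gain under 50%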;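 note: plate controls were neutral control wells for no effect and wells lacking membranes for full effect; tested at 10 µM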
Target sequence (Q03530 whole entry, looked up): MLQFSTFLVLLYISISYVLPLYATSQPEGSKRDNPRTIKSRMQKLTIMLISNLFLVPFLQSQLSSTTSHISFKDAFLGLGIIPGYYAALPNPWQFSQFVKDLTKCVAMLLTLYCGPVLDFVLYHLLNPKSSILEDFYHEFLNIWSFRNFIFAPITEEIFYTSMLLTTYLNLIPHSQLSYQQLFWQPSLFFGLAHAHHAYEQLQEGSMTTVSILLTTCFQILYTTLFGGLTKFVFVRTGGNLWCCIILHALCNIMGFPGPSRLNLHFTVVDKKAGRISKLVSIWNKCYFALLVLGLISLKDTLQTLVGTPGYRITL
MT1-MMP act inh: blockers of MT1-MMP proenzyme processing, primary screen, HT1080 RFP-PRO-GFP cells, GFP/RFP fluorescence; GFP/RFP ratio change, % at 20 µM; GFP/RFP ratio fluorescence, overnight; percent of plate control window, DMSO zero; AID 651647, 2012; 0.061% of 360,000 active; Matrix metalloproteinase-14 (Homo sapiens), P50281;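 active = GFP/RFP ratio change of at least 30% with cell ATP level not reduced by more than half and red fluorescence within 50% of control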; note: strong numbers were not always called active
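Test system: HT1080 RFP-PRO-GFP cells; Benchmarks: DMSO and RFP-L50D-GFP cell wells; Timing: cells overnight before dosing, compound overnight, 37 °C, 5% CO2; Compound: one 20 µM compound dose with 1% DMSO; Read-out: GFP/RFP fluorescence ratio.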
eIF4H FP inh: human eIF4H binding inhibitors, primary screen, translation initiation inhibitor project, biochemical, uHTS, fluorescence polarization; Eukaryotic translation initiation factor 4H (Homo sapiens), Q15056; eIF4H fluorescence polarization binding assay; inhibition, % at 35 µM; 0.94% of 290,000 active;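 active = 50% or more with normal probe brightness, or confirmed in later tests; inconclusive = above 50% with abnormal brightness, or retests that disagree; inactive = below 50% or failed in later tests; about a fifth of its hits are not listed in these tables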;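 note: calls also rest on retests at 20 µM and on dose response follow-up; 0% = protein and probe with vehicle and 100% = probe without protein; strong numbers were not always called active; many hits fall short of the cut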
Env fusion inh: inhibitors of HIV-1 Env-driven cell-cell fusion, primary screen, HeLa-JRFL effector, CEM21 target cells, luciferase; 1.1% of 360,000 active; AID 651610, 2012; inhibition, % at 12.3 µM;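 active = mean replicate inhibition score of at least 50 and every replicate individually at or above 50; inconclusive = only one of the two criteria met; inactive = mean below 50 and not all replicates reaching 50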;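 note: 0% = plate neutral controls and 100% = maraviroc near 300 nM; one replicate is shown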
CSC inhib: cancer stem cell viability inhibitors, primary screen, luminescence. cancer stem cell-like cells viability. AID 2717, 2010. 1.1% of 300,000 active. inhibition, % at 7.5 µM;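 active = mean at 75% or more and at least half the replicates too; inconclusive = mean and replicates disagree; tested in HMLE shEcad cells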;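 note: 0% = median of negative and 100% = median of positive control wells; the first replicate is given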
Yeast UUG start: modulators of yeast start codon fidelity, primary screen, whole organism, S. cerevisiae, single point, plate reader | S. cerevisiae UUG-firefly luciferase reporter, luminescence/redox ratio | activity score, % at 18.7 µM | 0.13% of 350,000 active | AID 602363, 2012;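 active = replicate mean at a twofold rise or more, about +100% in these data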;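 note: firefly luciferase made from a UUG start codon reports start codon fidelity; reporter light over untreated wells divided by growth signal over untreated wells; some hits fall short of that in this replicate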
eIF4H FP inh retest: recorded beside eIF4H FP inh, whose call it bears; inhibition, %; compound at 20 µM; confirmation average;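 mean of two retest wells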
PABP polyA inh retest: recorded beside PABP polyA inh, whose call it bears; inhibition, %; compound at 20 µM; confirmation repeats;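 mean of two retest wells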
MT1-MMP act inh RFP: further read-out of MT1-MMP act inh, marked with its call; RFP signal change, %; measured here: RFP expression control read;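 0 = vehicle wells; hits needed this value within 50% of zero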
The depositor's hits bear a star; i = inactive; ? = inconclusive; nt = no result given; + = active, no number; & = joins results of further samples.

SMILES	PABP polyA inh	Rce1 inh	MT1-MMP act inh	MT1-MMP act inh RFP	eIF4H FP inh	Env fusion inh	CSC inhib	Yeast UUG start	others
COc1cccc2sc(N3CCN(C(=O)c4cccs4)CC3)nc12	nt	i	-1	-1	nt	-8	2	5
O=C1N(CN2CCN(Cc3ccccc3)CC2)c2ccccc2C12OCCCO2	-16	nt	0	-4	0	6	-8	-17
C#Cc1ccc([C@H]2C=C(C(=O)NCc3ccccc3)O[C@@H](OCc3ccc(CO)cc3)C2)cc1	nt	i	-2	2	nt	-13	5	-4
CCOC(=O)CC(=O)CSc1nc(C)nc2c1oc1ccccc12	14	i	1	12	11	nt	-6	-18
O=C(Nc1ccc2c(c1)OCO2)c1nn(-c2ccccc2)c(=O)c2ccccc12	0	i	-6	-7	-9	20	12	-19
Cc1c(Cl)cccc1NC(=S)NCCc1ccc(Cl)cc1	-4	i	2	-10	-11	-20	12	-15
Cc1ccc(C)c(N2C(=O)CC(Cc3ccc(Cl)cc3)C2=O)c1 (stereo unspecified)	-5	i	2	-7	-16	6	-9	-11
CCN(CC)S(=O)(=O)c1cc(C(=O)Nc2ccncc2)ccc1Cl	-12	i	1	-24	1	nt	-2	-10
Cc1cccc(S(=O)(=O)N(C)C[C@H]2OCc3cnnn3CCCC(=O)N([C@H](C)CO)C[C@@H]2C)c1	nt	nt	2	4	nt	-5	nt	-10&-13
C=CCN(CC=C)C(=S)NC(=O)/C=C/c1ccc(C)cc1	-6	i	2	4	12	-7	-24	-3
CCCCCCOc1ccc(C(=O)O)cc1	-1	i	2	3	5	-3	-11	6
COc1ccc(C[C@@H]2CN3C(=NC[C@@H]3C)N2CCNC(=O)c2ccc(C)c(Br)c2)cc1	-1	i	4	3	-5	-3	3	-3
CN(C)/C=N/c1c(C#N)cnn1-c1ncnc2sc(-c3ccccc3)cc12	-5	+	-10	-5	-4	nt	5	9
CCC(=O)OC1(C)C(=O)C2=COC(c3ccc(OC)cc3)=CC2=C(Br)C1=O (stereo unspecified)	?	i	0	15	?	20	-1	4
O=C(NCCCN1CCOCC1)c1cc(C(=O)C2CC2)c[nH]1	2	i	2	3	0	-38	-19	-30
CN(C)c1ccc(Cl)cc1N	-15	i	nt	nt	69*	-11	-15	nt	eIF4H FP inh retest=91*;PABP polyA inh retest=41
O=C(NCc1ccc2[nH]c3c(c2c1)CCCC3)N1CCOCC1	97	i	nt	nt	88	nt	-9	nt	eIF4H FP inh retest=-3;PABP polyA inh retest=-7
C=CCc1cccc(CNc2ccc(S(=O)(=O)Nc3nccnc3OC)cc2)c1O	0	i	0	-1	-6	-4	nt	-11
O=C(CCN1C(=O)[C@@H]2Cc3ccccc3CN2C1=O)NCCc1ccccc1	59*	i	1	3	81*	2	-4	-2
CC(=O)Nc1ccc(S(=O)(=O)N2CCSC2c2ccccc2Cl)cc1 (stereo unspecified)	6	i	1	-6	-8	nt	nt	-18
CCOC(=O)CN1C(=O)C(CC)Oc2ccc(Cl)cc21 (stereo unspecified)	-9	i	9	3	-9	nt	2	-8
COc1cccc(/C=N/NC(=O)c2[nH]nc3c2CCc2ccccc2-3)c1O	-3	i	-2	-4	-24	nt	111*	nt
O=[N+]([O-])c1ccc(COc2ccc(-c3[nH]ncc3-c3ccc(Cl)cc3)c(O)c2)cc1	2	i	3	-9	2	nt	82*	-12
N#C/C(=N\Nc1ccccc1)C(=N)N1CCCCCC1	-4	i	2	5	11	-34	-6	nt
Nc1ncnc(Sc2ccc(Cl)cc2)c1[N+](=O)[O-]	7	i	-19	-17	0	30	23	nt

The final 3 compounds of the part above come first, to join the parts.
SMILES	PABP polyA inh	Rce1 inh	MT1-MMP act inh	MT1-MMP act inh RFP	eIF4H FP inh	Env fusion inh	CSC inhib	Yeast UUG start	others
O=[N+]([O-])c1ccc(COc2ccc(-c3[nH]ncc3-c3ccc(Cl)cc3)c(O)c2)cc1	2	i	3	-9	2	nt	82*	-12
N#C/C(=N\Nc1ccccc1)C(=N)N1CCCCCC1	-4	i	2	5	11	-34	-6	nt
Nc1ncnc(Sc2ccc(Cl)cc2)c1[N+](=O)[O-]	7	i	-19	-17	0	30	23	nt
CCOC(=O)CC(NC(=O)Cn1nnc(-c2ccccc2)n1)c1ccc(OC)cc1 (stereo unspecified)	-4	i	2	-4	-2	-3	8	-13
O=C(c1ccccc1Cl)N1CCSCC1	4	i	0	2	8	-2	13	-14
O=C(NCc1cccnc1)c1ccccc1-c1nc(-c2ccccc2)no1	2	i	0	2	0	-5	-6	nt
COc1cccc(N(CC(=O)NCCSCc2ccco2)S(=O)(=O)c2ccccc2)c1	6	i	-1	1	5	-10	-7	3
COC(=O)CN1C(=O)[C@H]2[C@@H](c3ccc(C)o3)N3C(=O)CN(CC4CC4)C(=O)[C@@]3(Cc3ccccc3)[C@H]2C1=O	6	i	2	11	-6	-2	5	nt
O=C(c1ccc(N2C(=O)c3ccccc3C2=O)cc1)N1CCCCC1	-3	i	0	4	10	-4	13	-8
O=C(CCNS(=O)(=O)c1ccc2[nH]c(=O)oc2c1)NCc1ccccc1	8	+	3	5	-7	1	-5	-18
COc1ccc(NC(=O)c2cc3c(Cl)nc4ccccc4c3s2)c(OC)c1	2	i	0	0	-4	nt	-9	nt
CCOc1ccccc1NC(=O)N1C2CCCC1CC(NC(=O)C1CC1)C2 (stereo unspecified)	-6	i	4	3	3	-181	-9	nt
COC(=O)CSc1nc2c(c(-c3ccc(O)cc3)c1C#N)CCCC2	12	i	-2	-6	-1	-2	18	2
COC(C(=O)Nc1ccc(C(C)=O)cc1)c1ccccc1 (stereo unspecified)	26	i	2	4	0	9	-20	nt
CNC(=O)C1CCC(=O)N1Cc1ccc(C)cc1 (stereo unspecified)	-4	i	4	6	18	nt	-3	-20
CSc1ccc(/C=C(\NC(=O)c2ccco2)C(=O)N2CCCCC2)cc1	17	i	3	3	-1	-24	-9	4
Cc1ccc2nc(-c3ccc(N4C(=N)SC5CS(=O)(=O)CC54)cc3)sc2c1 (stereo unspecified)	3	i	-2	-3	2	-35	2	1
CCCOC(=O)c1ccc(N2C(=O)c3ccccc3C2=O)cc1	-8	i	8	6	-5	12	-4	nt
CN(C)CCCN1C(=O)C2CCc3[nH]c4ccccc4c3C2C1=O (stereo unspecified)	12	i	0	5	2	-7	-8	-10
CC(=O)c1ccccc1OC(=O)COc1ccc([N+](=O)[O-])cc1	-6	i	-4	-1	4	-23	-1	-12
Cc1cc(-c2nnc(SCC(=O)NC3CCCC3)o2)no1	-4	i	-4	-2	-6	nt	-2	-22
COc1ccc(NS(=O)(=O)NC(=O)c2c[nH]c3ccccc23)cc1	8	i	1	6	-2	0	2	-17
O=c1c(-c2ccccc2)coc2c(CN3CCOCC3)c(O)ccc12	-9	i	-1	1	3	nt	nt	-15
O=C1COc2ccccc2CN1	-6	i	-2	2	2	nt	4	-3
CO/N=C(/CS(=O)Cc1ccc(Cl)cc1)c1ccc(Cl)cc1 (stereo unspecified)	2	i	-2	-5	5	39	4	-24
Cc1ccccc1SCC(=O)NNC(=O)c1ccncc1	nt	nt	-1	2	nt	nt	2	-24
Cc1cccc(C)c1NC1=C(Cl)C(=O)OC1OC(=O)c1ccccc1 (stereo unspecified)	5	i	-4	-1	18	21	-17	nt
Cc1nnc(NC(=O)C2CC(=O)N(C(C)c3ccccc3)C2)s1 (stereo unspecified)	-7	i	-1	5	-4	-58	-7	3

Later entries
SMILES	PABP polyA inh	Rce1 inh	MT1-MMP act inh	MT1-MMP act inh RFP	eIF4H FP inh	Env fusion inh	CSC inhib	Yeast UUG start	others
CC1CCc2nc(NC(=O)CCSc3ccccc3)sc2C1 (stereo unspecified)	-5	i	1	6	4	-19	-3	-16
CC(=O)Nc1c(O)nc(SCC(=O)N2CCCCC2)[nH]c1=O	nt	nt	-1	2	nt	3	3	-18
COc1ccc(Br)cc1/C=C/C(=O)NC(=S)Nc1ccc(Cl)c(C(=O)O)c1	2	i	-1	-3	33	3	-10	nt
Cn1nnnc1Sc1ncnc2scc(-c3cccc(F)c3)c12	nt	nt	-7	-12	nt	-27	-2	-13
COc1ccc(S(=O)(=O)N(C)C[C@H]2Oc3ccc(NC(=O)Cc4cn(C)c5ccccc45)cc3C(=O)N([C@@H](C)CO)C[C@@H]2C)cc1	nt	nt	2	5	nt	-16	-23	-7&16
CC(=O)Nc1ccc(NC(=O)COc2ccc(S(=O)(=O)N3CCCC3)cc2C)cc1	7	i	5	3	-4	-11	-8	19
S=C(Nc1ccc(Cl)cc1)Nc1ccc2c(c1)OCCO2	4	i	3	0	1	nt	-5	-19
COc1ccccc1CNC(=S)NCc1ccc(Cl)cc1	2	i	0	-3	-1	nt	1	-34
Cc1cc2ncn(C(=O)N3CCOCC3)c2cc1C	2	i	2	4	-12	nt	-6	-18
CCOC(=O)C1(CCc2ccccc2)CCN(Cc2ccc(C(=O)OC)cc2)CC1	1	i	3	-2	-4	20	-3	-7
O=C(CCC(=O)OCc1ccc(Br)cc1)Nc1ccccc1	0	i	4	1	1	-13	-4	nt
COC(=O)c1c(NC(=O)C2SC(=NC3CCCCC3)C(C(N)=O)=C2N)sc2c1CCCC2 (stereo unspecified)	-3	i	-13	-14	-7	10	7	-13
Cc1ccc(C2C3=C(CC(C)(C)CC3=O)Nc3n[nH]c(C)c32)cc1 (stereo unspecified)	-11	i	-1	6	-8	nt	-6	-7
O=C(Cc1ccc([N+](=O)[O-])cc1)Oc1ccccc1	nt	nt	-1	2	nt	-2	nt	-10
CC(C)(C)c1ccc(C(=O)Cn2nc(C(=O)O)c3ccccc3c2=O)cc1	-13	i	-2	-13	5	7	-13	nt
CCn1cc(CN2CCC(n3nccc3NC(=O)Cc3ccccc3)CC2)cn1	20	i	-3	0	8	3	-7	-23
COc1ccc(S(=O)(=O)N2CCCCC2)cc1NC(=O)c1ccccc1	nt	i	4	-2	nt	0	-5	-3
C=CCc1c(C)nc2c(-c3ccccc3)cnn2c1N1CCOCC1	-6	i	-2	-3	-4	-58	0	-17
NC(=O)C(=O)N/N=C/c1cccc(C(F)(F)F)c1	-4	i	0	1	-13	-6	-5	nt
COc1ccc(N=C2SC(C(=O)O)CC(=O)N2Cc2ccc(OC)c(OC)c2)cc1 (stereo unspecified)	6	i	0	1	0	-31	-8	-15
CCNc1nc(NC(C)CC)nc(ON=C(C)C)n1 (stereo unspecified)	-8	i	-1	3	-16	-6	-13	-18
CC1(C(=O)NS(=O)(=O)c2ccc(Cl)cc2)CCN1C(=O)COc1ccc(Cl)cc1 (stereo unspecified)	nt	nt	3	6	nt	-2	nt	3
COc1cc(NC(=O)C(=O)NCCN2CCNCC2)c(OC)cc1Cl	-11	i	-1	3	-6	-7	4	nt
C=CCOC(=O)C1=C(C)NC(SCC(=O)Nc2ccccc2)=C(C#N)C1c1ccco1 (stereo unspecified)	14	i	-4	-9	3	-37	15	-2
Cc1nc2ccc(Cl)cn2c1C(=O)NN	3	i	4	6	7	7	-18	-24

Assay outcomes as filed in PubChem.
